# UCH37 DUB inh: inhibitors of human deubiquitinating enzyme UCH37; purified proteasome/UCH37, Ub-AMC cleavage fluorescence; inhibition, % (concentration not given with the values); Q9Y5K5; 330,000 tested, 0.33% active;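 active = mean of two replicates above 20%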;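 note: 0% = compound-free wells with enzyme and 100% = wells lacking proteasome; stock transfer was 100 nL into about 20 µL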
# Target sequence (Q9Y5K5 whole entry, looked up): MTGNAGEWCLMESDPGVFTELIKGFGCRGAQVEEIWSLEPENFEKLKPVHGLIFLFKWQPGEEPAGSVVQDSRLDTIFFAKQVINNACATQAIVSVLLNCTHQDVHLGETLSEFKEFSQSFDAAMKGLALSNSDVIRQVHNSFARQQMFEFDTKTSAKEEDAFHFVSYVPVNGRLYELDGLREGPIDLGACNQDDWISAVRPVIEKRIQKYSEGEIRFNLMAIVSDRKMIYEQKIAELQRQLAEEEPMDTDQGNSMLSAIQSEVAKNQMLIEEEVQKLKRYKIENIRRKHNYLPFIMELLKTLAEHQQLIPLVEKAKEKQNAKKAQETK
#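 Signal – fluorescence, ex 355 nm, em 460 nm · System – Proteasome-bound UCH37 · Input – 0.15 nM proteasome as dispensed · Timing – 30 min preincubation with enzyme, 25 min cleavage at room temperature · Read-out basis – percent inhibition of cleavage signal versus uninhibited and no-proteasome wells · Medium – Tris-HCl pH 7.4 with ATP-MgCl2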
# LANA-H2A inh: blocks KSHV LANA binding to histone H2A/H2B | Q9QR71 | cell-free LANA-H2A/H2B peptide, fluorescence polarization | inhibition, % (no concentration beside the values) | 320,000 tested, 0.6% active; in the data active = inhibition mostly above about 10%, no sharp cut-off; inactive = mostly below about 6.7%;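 note: stock transfer was 7.5 nL into about 10 µL; 0% = median of vehicle wells and 100% = median of positive control wells; one replicate is shown; the record names a cut of 25% in any replicate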
# ALR inh: blocks human ALR sulfhydryl oxidase activity; 290,000 tested, 3.8% active; purified ALR, DTT oxidation, H2O2 HRP-luminol luminescence; inhibition, % (no concentration beside the values);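 active = mean and each replicate at 75% or more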;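 note: stock transfer was 7.5 nL into about 7.5 µL; 0% = neutral wells and 100% = wells with inactivated enzyme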
# E coli growth: E. coli growth inhibition. AID 1053175. OD600 absorbance (concentration not given with the values). Escherichia coli growth, OD600, 23 h; active compounds read low. 330,000 tested, 0.21% active;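 active = OD600 absorbance below the run mean of sample wells minus 3.6 SD, in any replicate, cut at about 0.56 in these data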;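 note: stock transfer was 300 nL into about 60 µL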
# FGF22 binding: binders of recombinant human FGF22 by thermal shift; SYPRO orange fluorescence; percent of sucrose octasulfate shift, DMSO zero; Q9HCT0; AID 651658; 340,000 tested, 1.5% active; calls only at 9.99 µM;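 active = melting point raised past a set limit in the mean and every replicate; three in four hits are not shown here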
# Target sequence (Q9HCT0 whole entry, looked up): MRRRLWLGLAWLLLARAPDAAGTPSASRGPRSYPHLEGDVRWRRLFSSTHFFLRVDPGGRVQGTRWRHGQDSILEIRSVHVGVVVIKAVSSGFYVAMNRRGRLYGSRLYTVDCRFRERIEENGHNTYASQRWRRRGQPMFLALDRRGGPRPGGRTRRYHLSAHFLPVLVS
# Beta2AR agonist: agonists of human beta-2 adrenergic receptor inducing internalization; 340,000 tested, 0.43% active; P07550; response, % (no concentration beside the values); AID 504454; Am2.2-beta2AR cells, FAP receptor internalization, flow cytometry; reference of the scale not given here;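 active = response above a set limit, near 3 SD of response in nonfluorescent compounds, cut at about 42% in these data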;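 note: stock transfer was 100 nL into about 11 µL; a reference agonist was the positive control; negative values mostly stem from fluorescent compounds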
# HNF4A DNA FP: change in binding of human HNF4 alpha to DNA | P41235 | HNF4a-FITC DNA binding, fluorescence polarization, 1 h | activity change, % at 10 µM | 360,000 tested, 0.3% active; in the data active = activity change above about 30%, passing the limit was not always enough;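 note: controls were the assay level and a saturating level of protein; the project sought stronger binding though the title names inhibitors; some compounds called inactive have numbers as strong as hits; positive values seem to mean higher polarization but the record does not say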
# Target sequence (P41235 whole entry, looked up): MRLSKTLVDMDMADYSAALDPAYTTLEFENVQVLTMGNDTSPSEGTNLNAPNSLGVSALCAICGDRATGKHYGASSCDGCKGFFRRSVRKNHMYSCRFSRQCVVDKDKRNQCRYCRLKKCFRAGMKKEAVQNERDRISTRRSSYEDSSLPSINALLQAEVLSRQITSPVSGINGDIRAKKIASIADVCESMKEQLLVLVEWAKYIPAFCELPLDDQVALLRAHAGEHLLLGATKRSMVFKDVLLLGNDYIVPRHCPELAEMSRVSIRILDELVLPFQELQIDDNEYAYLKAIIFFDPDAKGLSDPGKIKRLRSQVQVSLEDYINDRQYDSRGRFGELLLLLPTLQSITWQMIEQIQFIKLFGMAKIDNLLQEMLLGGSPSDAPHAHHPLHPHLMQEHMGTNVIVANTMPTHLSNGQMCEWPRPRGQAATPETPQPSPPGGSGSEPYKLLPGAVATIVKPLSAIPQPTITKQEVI
# * = called active by the depositor; i = inactive; nt = not tested or not shown. The list is partial. The share of hits here may be higher or lower than overall.
structure,E coli growth,HNF4A DNA FP,FGF22 binding,ALR inh,UCH37 DUB inh,LANA-H2A inh,Beta2AR agonist
CN1CC(=O)N(CC(=O)Nc2ccc(SC(F)F)cc2)C1=O,0.68,-1.3,i,98*,3.6,1.2,-13
CCOc1ccccc1N(C)S(=O)(=O)c1ccc2c(c1)CCN2C(=O)CCC(=O)O,0.68,-3.0,i,nt,2.2,2.0,-1
COC(=O)c1ccc(CN2CCCC(C(=O)Nc3cccc(-n4cccn4)c3)C2)cc1 (stereo unspecified),0.66,2.0,i,-3,7.8,2.1,-1
Cc1ccc(C(=O)NCC(=O)OCn2nnc3ccccc3c2=O)cc1,0.74,2.1,i,0,2.6,-1.1,-7
COc1ccc(CCNC(=O)C(=O)NCC2CCNCC2)cc1OC,0.66,3.4,i,-2,3.9,-4.3,8
COc1ccc(NC(=S)N(CCN(C)C)C(C)c2ccncc2)cc1Cl (stereo unspecified),0.72,44*,i,-5,1.3,6.3,0
CN1CCN(c2nc(-c3ccc(Cl)cc3)nc3ccccc23)CC1,0.66,0.6,i,nt,0.8,nt,5
O=[N+]([O-])c1ccc2c(c1)C(=NO)c1cc(Cl)c(Cl)cc1-2,nt,1.1,i,nt,nt,nt,-1
CCN1C(=O)[C@H]2[C@@H](c3ccc(-c4ccccc4)cc3)N[C@@](Cc3ccccc3)(C(=O)OC)[C@H]2C1=O,nt,-1.9,i,5,1.5,-1.5,9
COc1ccc(/C=C/C(=O)OCC(=O)NCc2cccs2)cc1OC,0.69,-0.6,i,-1,-23,-2.8,-6
Cc1ccnc(NS(=O)(=O)Cc2ccccc2)c1,0.72,-3.1,nt,-12,-9.6,7.4,1
O=C(Nc1cc(S(=O)(=O)N2CCCCC2)ccc1Cl)C1COc2ccccc2O1 (stereo unspecified),0.7,-0.9,i,0,0.2,-5.7,15
CCN(CC(=O)Nc1ccc(NC(C)=O)cc1)C(=O)CCCc1nc2ccccc2s1,0.69,-2.5,i,19,4.4,-2.3,-2
CCCc1ccc(Oc2cc(Cl)nc(N)n2)cc1,0.74,-1.6,i,-5,2.8,-2.0,6
Nc1c(N2CCCC2)cc(Cl)c2nonc12,0.64,-4.2,nt,-22,87*,0.9,-3
CCCCn1c(N)c(N(CCOC)C(=O)C2CC(=O)N(c3ccc(CC)cc3)C2)c(=O)[nH]c1=O (stereo unspecified),0.71,-1.1,i,-24,1.4,3.1,6
COc1ccc(-n2c(SCC(=O)N3CCOCC3)nnc2C(C)N2CCCCC2)cc1 (stereo unspecified),0.7,nt,nt,-3,0.0,-9.2,nt
Cc1ccc(/C=N/NC(=O)COc2ccc(Cl)c(C)c2)o1,nt,0.2,i,nt,nt,-2.2,3
O=C(CNC(=O)c1ccccc1Br)N/N=C/c1cccnc1,nt,1.9,i,-1,nt,-5.6,-2
CCCc1cc(C(F)(F)F)c(C#N)c(=O)[nH]1,0.72,0.5,nt,1,i,-3.1,-4
COCCNS(=O)(=O)c1ccc(C)c(C)c1C,0.72,1.3,i,-2,-1.9,3.3,-4
CC(=O)Nc1c(Cl)cc(Cl)c2c1Cc1cc(Cl)ccc1-2,0.67,-0.4,nt,nt,-0.4,nt,-20
Cc1ccc(S(=O)(=O)NN=C2CCN(Cc3ccccc3)CC2)cc1,0.72,0.8,nt,nt,-0.2,-2.4,nt
Cc1cc(C)nc(NC(=O)c2c(-c3ccccc3Cl)noc2C)n1,0.71,-3.1,nt,-1,-0.4,4.1,1
COc1ccc(-c2csc(NC(=O)COC(=O)c3ccco3)n2)cc1,0.69,1.8,i,-26,-0.3,-2.7,-1
Cc1cccc(NC(=O)COC(=O)COc2ccc3c(c2)CCC3)c1,0.64,0.6,i,-3,3.6,0.0,-2
CCOC(=O)/C=C/[C@H]1CC(c2ccccc2)(c2ccccc2)CO1,nt,2.0,i,41,4.3,-3.1,2
Cc1nc(-c2ccc(Cl)cc2)sc1C(=O)CBr,nt,-1.3,i,0,2.7,-423,18
CCOC(=O)CN(C)Cc1cn[nH]c1-c1ccc2cc(OC)ccc2c1,0.63,-1.8,i,-18,-2.3,0.1,-5
NC(N)=NNC(=O)c1ccccc1Cl,0.7,9.7,nt,15,3.1,-2.7,-6
COCCNc1ncnc2c1cnn2Cc1ccccc1Cl,0.63,-1.0,i,0,2.9,-2.7,2
CC[C@]12c3[nH]c4cc(-c5ccco5)ccc4c3CCN1C(=O)[C@@H](CC(=O)NCc1cccc(C(F)(F)F)c1)C[C@@H]2C(=O)N1CCN(C(=O)C2CC2)CC1,0.68,10,i,nt,-21,nt,14
Cc1cccnc1NC(=O)c1ccc(C(=O)c2ccccc2)cc1,0.69,-0.2,i,0,-3.3,-1.3,-8
CCOc1ccccc1C(=O)NC(C)CCc1ccccc1 (stereo unspecified),0.68,7.2,i,2,3.2,4.2,-24
CCNC(=S)N(CCc1ccccc1C)Cc1cc2cc(OC)c(OC)cc2[nH]c1=O,0.66,-0.2,i,nt,-22,0.9,-12
COc1ccc(NC(=O)Cn2cnc3sc(C)c(S(=O)(=O)N4CCN(C)CC4)c3c2=O)cc1OC,0.66,5.5,i,-22,3.7,-2.6,1
COC(=O)C1=C(C)N(CCCC(=O)O)C(=O)NC1c1cc2c(cc1[N+](=O)[O-])OCO2 (stereo unspecified),0.7,-0.6,i,0,3.0,-0.3,-6
CN(C)C(=O)C12CCC(C)(C(=O)C1Br)C2(C)C (stereo unspecified),0.69,1.1,i,-4,1.4,-2.8,1
O=C(CSc1nc2ccccc2s1)N1CCN(C(=O)c2ccco2)CC1,0.73,2.6,nt,99*,-4.9,3.7,-3
COc1cccc(N2CC(C(=O)NCc3n[nH]c(=O)c4ccccc34)CC2=O)c1 (stereo unspecified),0.68,-0.7,i,nt,-1.4,nt,-4
Cc1c(C(=O)NCc2ccccc2CN2CCCC2)oc2c(F)cccc12,0.69,2.1,i,-4,0.2,-3.6,-4
CCc1csc(CNC(=O)C2CCC(=O)N(Cc3cccc(F)c3)C2)n1 (stereo unspecified),0.7,-1.4,i,-5,4.7,1.7,-4
CC1(C)CC(=O)c2sc(NC(=O)CCS(=O)(=O)c3ccccc3)nc2C1,0.79,2.4,i,nt,2.2,-2.4,7
Cc1ccc(Cc2nnc(SCC(=O)Nc3ccc(C)cc3C)[nH]c2=O)cc1,0.65,2.4,i,-13,6.8,5.2,2
Cc1ccc(S(=O)(=O)N2CCOCC2)cc1NC(=O)CSc1nnc(COc2ccccc2F)n1N,0.7,-0.9,i,nt,0.2,nt,35
COC(=O)c1oc2ccc(Br)cc2c1NC(=O)CCCN1C(=O)c2ccccc2C1=O,0.79,0.4,i,-4,0.5,-1.2,-5
S=c1[nH]nc(COc2ccccc2)n1/N=C/c1ccccc1Br,nt,0.1,i,-6,nt,2.3,6
CC1CCCCN1C(=O)CSc1nc2ccccc2n1CC(=O)N1CCc2ccccc21 (stereo unspecified),0.66,6.6,nt,25,5.1,2.6,19
Cn1nc(-c2ccc(N3CCCCC3)c(NC(=O)c3ccco3)c2)c2ccccc2c1=O,0.68,5.8,nt,1,-9.0,-8.0,1
COc1ccc(CCNC(=O)Cn2cnc3c(nnn3Cc3ccc(C)cc3)c2=O)cc1OC,0.72,-2.7,nt,-2,2.1,5.4,2

# Next part, starting with the last 2 of the part before.
structure,E coli growth,HNF4A DNA FP,FGF22 binding,ALR inh,UCH37 DUB inh,LANA-H2A inh,Beta2AR agonist
Cn1nc(-c2ccc(N3CCCCC3)c(NC(=O)c3ccco3)c2)c2ccccc2c1=O,0.68,5.8,nt,1,-9.0,-8.0,1
COc1ccc(CCNC(=O)Cn2cnc3c(nnn3Cc3ccc(C)cc3)c2=O)cc1OC,0.72,-2.7,nt,-2,2.1,5.4,2
O=C(NCC1CCN(Cc2ccccc2Cl)CC1)Nc1cccc(Cl)c1,nt,1.0,i,-6,nt,2.1,4
Cc1ccc(-c2nn(-c3ccccc3)cc2/C=N/NS(=O)(=O)c2ccccc2)cc1,nt,-0.9,nt,0,nt,9.4,-16
CC(=O)N1CCN(c2nnnn2-c2ccccc2)CC1,0.72,1.2,nt,-10,-1.7,6.7,-1
O=Cc1ccc(-c2nc3ccccc3s2)o1,0.68,1.5,nt,45,-236,0.2,0
Cc1c(NC(=O)COC(=O)c2cccn2C)c(=O)n(-c2ccccc2)n1C,0.66,0.1,i,-1,-1.0,-2.8,-4
CC1CC(C)CN(C(=S)SCc2nc(N)nc(Nc3ccccc3)n2)C1 (stereo unspecified),0.72,-2.2,i,-2,5.1,-0.6,-1
COc1cccc(C(C(=O)NC2CCCC2)N(Cc2ccccc2OC)C(=O)c2ccco2)c1 (stereo unspecified),0.74,-0.5,nt,0,1.3,4.4,28
COc1ccc(-c2noc(CN(C)S(=O)(=O)c3ccc(C)cc3)n2)cc1,0.72,0.9,nt,-5,-0.8,5.4,5
Cc1ncc(CO)c(CNc2ccc(-c3nc4ccccc4[nH]3)cc2)c1O,0.64,-1.5,i,98*,-32,-1.8,-21
Cc1c(NS(=O)(=O)c2cccc(C(=O)NC(C)c3ccccc3)c2)c(=O)n(-c2ccccc2)n1C (stereo unspecified),0.72,1.1,i,nt,2.8,nt,-5
COc1cc(C(=O)N2CCCc3ccccc32)c([N+](=O)[O-])cc1OC,0.67,2.0,i,-16,3.8,1.1,-3
COc1ccc2cc(C(c3nnnn3CC3CCCO3)N3CCOCC3)c(=O)[nH]c2c1 (stereo unspecified),0.7,0.9,nt,-14,-1.1,3.2,-1
CCOCCn1c(CN2CCN(C(c3ccccc3)c3ccccc3)CC2)nc2c1c(=O)n(C)c(=O)n2C,0.69,0.9,i,-15,1.3,-2.1,5
CCCCc1ccc(N=N/C(C(=O)Nc2ccccc2OC)=C(/C)O)cc1,0.75,-0.1,i,3,2.5,-0.5,-1
CC12CCC(C(=O)N(Cc3ccccc3)Cc3ccccc3)(OC1=O)C2(C)C (stereo unspecified),0.78,-1.3,nt,-20,3.6,4.9,-1
O=C(CN1C(=O)NC2(CCCC2)C1=O)N1CCN(c2ccccc2O)CC1,0.63,-2.3,i,57,1.1,1.7,-1
O=C1NCCCC2c3c(cc(Br)c(O)c3Br)OC12N1CCCCC1 (stereo unspecified),0.69,-4.5,nt,99*,1.2,-0.1,4
COc1cc(CCCN2C(=O)C(=O)NC[C@@H]2C(C)O)cc(OC)c1OC (stereo partly specified),nt,-2.1,i,-13,2.3,5.0,-4
N/C(CSc1nc(-c2ccccc2)c(-c2ccccc2)o1)=N\O,nt,-1.5,nt,15,nt,-4.1,5
CC(C)CN1C(=O)/C(=C(/C#N)C(=O)NC2CCCCC2)c2ccccc21,0.69,1.6,i,21,4.0,0.1,0
CC(C(=O)NCCS(=O)(=O)c1ccc(Cl)cc1)S(=O)(=O)c1ccccc1 (stereo unspecified),0.67,2.4,i,2,0.5,-1.3,-4
O=C(NC1=NCCS1)c1cc(-c2cccnc2)nc2ccccc12,0.67,-0.1,i,-18,7.8,-0.2,-20
Cc1ccccc1-c1nc(CS(=O)(=O)CC(=O)NCCCN2C(C)CCCC2C)c(C)o1 (stereo unspecified),0.77,-1.4,i,-8,2.4,1.9,13
Cc1cc(C)c(C#N)c(N2CCN(c3ccc(F)cc3)CC2)n1,0.69,2.7,i,-14,-5.2,7.5,9
Cc1cccc(-n2c(=O)c3ccccc3n3c(=S)[nH]nc23)c1C,0.64,1.9,i,69,0.3,-0.5,4
COc1ccc(NC(C)=O)cc1NC(C)c1nc2sc(C)c(C)c2c(=O)[nH]1 (stereo unspecified),0.7,2.2,i,4,-61,4.8,1
Nc1nonc1-c1noc(-c2ccccc2Br)n1,0.72,1.8,nt,-8,2.3,-0.5,-2
